Bfl-1 A1 inh: inhibitors of the anti-apoptotic protein A1, read as caspase activation | MEF A1-2A-BIM cells, Caspase-Glo 3/7 luminescence, 3 h; percent of clofoctol response, vehicle zero | caspase activation, % (concentration not given with the values) | 330,000 compounds, 0.066% hits;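 active = over half of replicate activation scores above 10%, or exactly half above 10 with the replicate mean above 10; inconclusive = replicate mean below 10 yet half the replicates above 10; inactive = over half of replicates below 10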;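 also: wells of about 30 µL received 50 nL stock; many hits fall short of the cut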
Ecoli growth: blocks Escherichia coli growth; OD600 absorbance (no concentration beside the values); OD600, 23 h; active compounds read low; 330,000 compounds, 0.21% hits;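 active = OD600 absorbance below the run mean of sample wells minus 3.6 SD, in any replicate, cut at about 0.56 in these data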;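 also: stock transfer was 300 nL into about 60 µL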
UCH37 DUB inh: human UCH37 deubiquitinating enzyme inhibition; inhibition, % (concentration not given with the values); purified proteasome/UCH37, Ub-AMC cleavage fluorescence; 330,000 compounds, 0.33% hits;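 active = mean of two replicates above 20%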;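 also: 0% = compound-free wells with enzyme and 100% = wells lacking proteasome; stock transfer was 100 nL into about 20 µL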
Target sequence (Q9Y5K5 whole entry, looked up): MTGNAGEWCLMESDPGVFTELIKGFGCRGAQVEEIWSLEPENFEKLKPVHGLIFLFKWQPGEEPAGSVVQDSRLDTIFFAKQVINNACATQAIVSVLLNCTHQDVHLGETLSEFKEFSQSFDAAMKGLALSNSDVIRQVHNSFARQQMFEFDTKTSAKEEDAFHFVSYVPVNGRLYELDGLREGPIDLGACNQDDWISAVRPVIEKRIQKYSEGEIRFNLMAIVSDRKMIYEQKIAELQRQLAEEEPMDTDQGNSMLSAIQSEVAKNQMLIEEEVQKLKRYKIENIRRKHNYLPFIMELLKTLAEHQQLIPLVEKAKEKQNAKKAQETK
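Material: human UCH37 enzyme supplied as purified proteasome complex / Amount: 0.15 nM proteasome as dispensed / Buffer or medium: pH 7.4 Tris-HCl (50 mM) with ovalbumin, ATP-MgCl2, DTT / Times: preincubation 30 min, reaction 25 min, room temperature / Technique: AMC fluorescence from Ub-AMC cleavage, excitation 355 nm, emission 460 nm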
HNF4A DNA FP: change in binding of human HNF4 alpha to DNA | HNF4a-FITC DNA binding, fluorescence polarization, 1 h | activity change, % at 10 µM | P41235 | 360,000 compounds, 0.3% hits | AID 1224865; in the data active = activity change above about 30%, passing the limit was not always enough;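 also: controls were the assay level and a saturating level of protein; the project sought stronger binding though the title names inhibitors; some compounds called inactive have numbers as strong as hits; positive values seem to mean higher polarization but the record does not say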
Target sequence (P41235 whole entry, looked up): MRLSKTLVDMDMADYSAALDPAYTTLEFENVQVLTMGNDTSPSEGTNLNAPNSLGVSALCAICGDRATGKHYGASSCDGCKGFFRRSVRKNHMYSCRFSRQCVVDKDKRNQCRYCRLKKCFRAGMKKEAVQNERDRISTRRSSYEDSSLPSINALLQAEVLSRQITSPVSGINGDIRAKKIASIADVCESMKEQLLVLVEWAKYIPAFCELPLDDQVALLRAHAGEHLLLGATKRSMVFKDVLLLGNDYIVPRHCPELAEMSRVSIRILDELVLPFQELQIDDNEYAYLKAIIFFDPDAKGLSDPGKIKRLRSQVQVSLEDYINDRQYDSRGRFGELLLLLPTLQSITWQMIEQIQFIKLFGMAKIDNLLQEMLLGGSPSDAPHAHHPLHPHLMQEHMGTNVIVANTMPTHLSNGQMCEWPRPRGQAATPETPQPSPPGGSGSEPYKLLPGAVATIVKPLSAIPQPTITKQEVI
LANA-H2B inh: blocks KSHV LANA binding to histone H2A/H2B; cell-free LANA-H2A/H2B peptide, fluorescence polarization; inhibition, % (test concentration not listed); Q9QR71; 320,000 compounds, 0.6% hits; in the data active = inhibition mostly above about 10%, no sharp cut-off; inactive = mostly below about 6.7%;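 also: stock transfer was 7.5 nL into about 10 µL; 0% = median of vehicle wells and 100% = median of positive control wells; one replicate is shown; the record names a cut of 25% in any replicate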
Vif TR-FRET: HIV-1 Vif–A3G interaction blockers – biochemical, TR-FRET, GST-Vif 1-94, biotin-A3G peptide, dose response retest, primary screen (AID 1117319). one-dose inhibition, %; IC50 in µM for titrated hits. TR-FRET GST-Vif / biotin-A3G peptide binding; higher % means a stronger effect; test concentration not given here; strong numbers were not always called active. 260,000 compounds, 0.57% hits;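 active = above the screen mean plus three standard deviations and confirmed in dose response; inconclusive = results disagree or hit not tested in dose response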;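 also: Vif residues 1-94 fused to GST binding biotinylated APOBEC3G peptide 110-148; 0% = full assay without inhibitor and 100% = GST in place of GST-Vif; retest series ran down from 100 µM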
B2AR ag: agonists of human beta-2 adrenergic receptor inducing internalization; P07550; Am2.2-beta2AR cells, FAP receptor internalization, flow cytometry; reference of the scale not given here; response, % (no concentration beside the values); 340,000 compounds, 0.43% hits; AID 504454;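 active = response above a set limit, near 3 SD of response in nonfluorescent compounds, cut at about 42% in these data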;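 also: stock transfer was 100 nL into about 11 µL; a reference agonist was the positive control; negative values mostly stem from fluorescent compounds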
* marks the source's active call; other numbers are inactive results; ? = inconclusive; nt = not tested or not shown; & = joins results of further samples.

SMILES | Bfl-1 A1 inh | Ecoli growth | UCH37 DUB inh | HNF4A DNA FP | LANA-H2B inh | Vif TR-FRET | B2AR ag
CCc1nnc(NS(=O)(=O)c2ccc(N3C(=O)c4ccc(C(=O)O)cc4C3=O)cc2)s1 | 0.5 | 0.74 | 3.5 | -2.7 | 1.5 | 15% | 4
CC(=O)Nc1ccc(Oc2nc(-c3cccnc3)nc3sc4c(c23)CCCC4)cc1 | 1.0 | 0.68 | 4.9 | -1.2 | 2.8 | nt | -1
CC(C)CN(C(=O)COC(=O)CNC(=O)c1ccccc1)c1c(N)n(Cc2ccccc2)c(=O)[nH]c1=O | 0.0 | 0.67 | 1.1 | -1.2 | -1.5 | 0% | 5
COC(=O)Cn1ncn2c(cc3oc(C)cc32)c1=O | -0.9 | 0.69 | 3.3 | 20 | -2.2 | 72µM* | 3
COc1cc(/C=N/NC(=O)c2cccs2)ccc1OCc1ccccc1 | 0.6 | nt | nt | -2.4 | 3.1 | 5% | 20
COC(=O)C1=NN(c2cccc3ccccc23)C2C(=O)N(c3ccccc3OC)C(=O)C12 (stereo not given) | -0.8 | 0.67 | 4.6 | -3.3 | -0.6 | nt | 4
CCC(Sc1nc2ccncc2[nH]1)C(=O)Nc1cc(Cl)ccc1C (stereo not given) | 0.9 | 0.76 | 4.3 | 1.4 | 1.8 | nt | -2
COc1ccc(CNC(=O)c2ccc(NS(=O)(=O)c3ccc4[nH]c(=O)[nH]c4c3)cc2)cc1OC | -0.5 | 0.69 | -0.3 | -0.1 | -2.3 | -2% | -5
O=C(NC(=S)Nc1ccc2cn[nH]c2c1)c1ccccc1 | -0.1 | 0.73 | 2.9 | 2.6 | -94 | -6% | -1
CN(Cc1ccc(Cl)cc1)C(=O)c1ccc2ccccc2n1 | -0.6 | 0.67 | 2.5 | 3.1 | 0.5 | nt | 4
CCCOC(=O)c1[nH]c2c(c1C)C(=O)CC(c1ccc(OC)c(OC)c1)C2 (stereo not given) | 0.4 | 0.69 | 2.4 | -2.2 | nt | 30% | 0
COc1ccc(/C=N\NC(=O)c2ccccc2F)cc1COc1ccc(F)cc1 | 1.5 | nt | nt | 1.1 | 0.8 | nt | -1
COc1ccc(S(=O)Cc2ccc(C(=O)NCc3cccc(OC)c3)o2)cc1 (stereo not given) | -0.8 | 0.66 | 0.9 | 0.0 | -2.8 | -7% | -5
CCN(CC)S(=O)(=O)c1cc(NC(=S)NC(=O)C2CCCC2)ccc1C | ? | 0.68 | 5.0 | -6.7 | 1.2 | nt | 6
Cc1ccc(S(=O)(=O)Nc2ccc3ccccc3c2[N+](=O)[O-])cc1 | nt | 0.62 | 7.6 | -4.6 | nt | 4% | 3

Some of these compounds in order of the Ecoli growth value, ascending:
Structure,Ecoli growth,UCH37 DUB inh,HNF4A DNA FP,LANA-H2B inh,Vif TR-FRET,B2AR ag
Cc1ccc(S(=O)(=O)Nc2ccc3ccccc3c2[N+](=O)[O-])cc1,0.62,7.6,-4.6,nt,4%,3
CCCOC(=O)c1[nH]c2c(c1C)C(=O)CC(c1ccc(OC)c(OC)c1)C2 (stereo not given),0.69,2.4,-2.2,nt,30%,0
CCC(Sc1nc2ccncc2[nH]1)C(=O)Nc1cc(Cl)ccc1C (stereo not given),0.76,4.3,1.4,1.8,nt,-2

Returning to the listing; the 2 compounds before the break are reprinted first.
SMILES | Bfl-1 A1 inh | Ecoli growth | UCH37 DUB inh | HNF4A DNA FP | LANA-H2B inh | Vif TR-FRET | B2AR ag
CCN(CC)S(=O)(=O)c1cc(NC(=S)NC(=O)C2CCCC2)ccc1C | ? | 0.68 | 5.0 | -6.7 | 1.2 | nt | 6
Cc1ccc(S(=O)(=O)Nc2ccc3ccccc3c2[N+](=O)[O-])cc1 | nt | 0.62 | 7.6 | -4.6 | nt | 4% | 3
COc1ccc(N(CC(=O)NCCSCc2cccc(Cl)c2)S(C)(=O)=O)cc1Cl | 0.6 | 0.66 | 0.2 | -0.8 | -0.6 | nt | 8
O=C(C[C@H]1C/C=C\C[C@H](NC(=O)OCC2c3ccccc3-c3ccccc32)C(=O)O[C@@H](c2ccccc2)CNC1=O)NCCO | 0.5 | 0.72 | 3.8 | 1.6 | -286 | 0% | 7
Cc1nn(-c2ccccn2)c2c1-c1nc(N)ncc1CC2 | -0.1 | 0.72 | -36 | 0.5 | -2.4 | 5% | -4
CN(C)S(=O)(=O)c1ccc(Cl)c(NC(=O)COC(=O)CN2C(=O)C3CCCCC3C2=O)c1 (stereo not given) | 0.8 | 0.7 | 3.8 | -4.2 | -0.2 | 5% | 1
Cc1ccc(C)c(NC(=S)N2CCCCC2CO)c1 (stereo not given) | -0.5 | 0.69 | 3.1 | 2.4 | -7.1 | 0% | 4
O=C(NC(=S)NN1CCOCC1)c1cc(Br)ccc1Cl | 2.4 | 0.69 | 0.9 | 3.2 | -4.8 | nt | -4
CN(C)/C=C(/C(=O)c1ccc(Cl)cc1Cl)S(=O)(=O)c1ccccc1 | nt | 0.68 | 3.8 | -2.6 | 5.8 | 21% | 5
O=C(COC(=O)C12CC3CC(CC(Cl)(C3)C1)C2)Nc1ccccc1 | -0.1 | 0.72 | 1.1 | 1.9 | 1.1 | nt | -4
Cc1ccc(S(=O)(=O)Nc2c(C)n(C)n(-c3ccccc3)c2=O)cc1 | 0.5&0.1 | 0.72&0.69 | 0.7&2.5 | -1.2&-1.6 | 2.8&0.6 | ? | -3&-10
CC(C)Oc1ccc(C(=O)Nc2ccc(N3CCCCC3)cc2)cc1 | -0.5 | 0.7 | -5.5 | 82* | -5.1 | 11% | 17
O=C(COC(=O)c1ccc(Cl)c(S(=O)(=O)N2CCCC2)c1)NC1CCCCC1 | -0.1 | 0.62 | -1.8 | -0.1 | 0.0 | 3% | 6
CC(=O)c1cccc(NC(=O)C2CCCCC2)c1 | -1.0 | 0.71 | 0.3 | 1.9 | 0.4 | 0% | -6
Clc1ccc(C=NN2CCCCCC2)c(Cl)c1 | nt | 0.64 | 1.6 | 4.7 | nt | -5% | -1
CC(CNC(=O)Cn1ccc2cc(S(=O)(=O)N3CCCC3)ccc21)c1ccccc1 (stereo not given) | 0.5 | 0.7 | 6.5 | 1.6 | -0.6 | nt | -1
CC(=O)Nc1c(O)nc(SCC(=O)Nc2sc3c(c2C#N)CCCCCC3)[nH]c1=O | 1.3 | 0.69 | 9.0 | -1.6 | 1.3 | 1% | -3
CC1(NC(=O)Nc2cc([N+](=O)[O-])ccc2O)CCS(=O)(=O)C1 (stereo not given) | 0.6 | 0.69 | 11 | 2.0 | 1.6 | -15% | -10
O=C(C1COc2ccccc2O1)N1CCN(c2ccc([N+](=O)[O-])cc2)CC1 (stereo not given) | -0.1 | 0.68 | 7.1 | -3.5 | -2.9 | nt | 17
CCN(CC(=O)Nc1ccc2c(c1)OCCO2)Cc1cc(=O)oc2cc(C)c(C)cc12 | -0.1 | 0.74 | 5.3 | 2.0 | 3.8 | 3%&-4% | -16
CC1(C)Cc2nc3sc4c(N5CCCC5)nnnc4c3cc2CO1 | 1.1 | 0.68 | -0.7 | nt | 3.6 | -1% | nt
COc1ccc(C(=O)Nc2ccc(Cl)cc2F)cc1S(=O)(=O)N1CCCC1 | 1.4 | 0.71 | 1.4 | -2.0 | -0.7 | nt | 0
O=C(CCN1CCN(c2ccccc2)CC1)N/N=C/c1ccc([N+](=O)[O-])o1 | 0.4 | nt | nt | -4.2 | 1.7 | 16% | -7
O=C(C1CC(=O)N(c2ccc3c(c2)OCCO3)C1)N1CCN(c2ccccc2)CC1 (stereo not given) | 0.8 | 0.7 | 0.2 | -2.5 | -3.3 | 33% | 3
COc1cc(-c2c(-c3ccc4c(c3)OCO4)noc2C)ccc1F | -0.5 | 0.69 | 4.3 | 0.6 | 3.9 | nt | 0
Cc1ccc2sc(NC(=O)CN3C(=O)c4ccccc4C3=O)nc2c1C | 0.8 | 0.78 | 5.4 | -1.5 | -3.3 | 2% | 9
CC(C(=O)Nc1ccc2c(c1)OCO2)c1ccc([N+](=O)[O-])cc1 (stereo not given) | 0.2 | 0.66 | -2.5 | -0.8 | -0.3 | -4% | -13
COc1cc(NC(=O)COC(=O)CNC(=O)C23CC4CC(CC(C4)C2)C3)cc(OC)c1 | 0.0 | 0.59 | 1.5 | 2.7 | -5.6 | -7% | 1
CC(C)(C)NC(=O)Cn1c(SCC(N)=O)nc2ccccc21 | 1.1 | 0.66 | 1.0 | 1.5 | -5.9 | 2% | -4
CC(NC(=S)NC(=O)c1cccs1)c1ccccc1 (stereo not given) | 0.6 | 0.64 | 2.3 | -3.6 | 1.6 | -9% | -2
O=C1/C(=C\Nc2ccc(Cl)cc2)CCN1c1ncccn1 | -0.1 | 0.72 | 10 | -3.2 | -3.8 | 10% | 14
O=c1[nH]c(CNCc2cccnc2)nc2ccccc12 | -0.7 | 0.72 | -1.1 | 1.7 | 3.1 | 9% | 0
Cn1nccc1C(=O)NC1CCCc2c1cnn2-c1ccccc1F (stereo not given) | 0.3 | 0.71 | 2.1 | 2.1 | 2.6 | nt | -1
c1ccc2occc2c1 | nt | 0.74 | 1.8 | 3.5 | nt | nt | -7
CCNc1nc(NC(C)C)nc(NC(C)(C)C)n1 | 0.3 | 0.63 | 1.9 | 3.1 | 1.6 | 3% | 0
CCC(O)C1CCN(C(=O)c2ccc(OC3CCN(Cc4ccccn4)CC3)cc2)CC1 (stereo not given) | 0.4 | 0.68 | 1.8 | 1.3 | 3.9 | -3% | 5
Cc1noc(C(=O)Nc2cccc(Cl)c2)c1Cl | -5.6 | 0.64 | 1.0 | -1.7 | -1.4 | -9% | -9
CC1(C)NC(=O)N(CCOCCOc2c(Cl)cc(Cl)cc2Cl)C1=O | 0.5 | 0.7 | 5.5 | -0.8 | -1.5 | 4% | -8
COc1ccc(Cl)cc1NC(=S)Nc1cccnc1 | 0.3 | 0.71 | 0.6 | -3.7 | -3.8 | -2% | 2
COc1ccc(OC)c(CN2CCN(C(=O)c3cccc(S(=O)(=O)Nc4ccc(F)cc4)c3)CC2)c1 | nt | 0.65 | 0.3 | 3.2 | nt | nt | -4
Clc1ccc(CSc2ncn[nH]2)cc1 | 2.8 | 0.66 | -0.1 | -1.7 | -0.4 | 0% | -16
COc1ccc(S(=O)(=O)Nc2ccc3c(c2)n(C)c(=O)n3C)cc1OC | 1.2 | 0.69 | 7.4 | 0.3 | -1.4 | nt | 3
CS(=O)(=O)N1CCC(C(=O)NCc2ccncc2)CC1 | -0.1 | 0.74 | 1.9 | 1.7 | 2.5 | 0% | -8
O=C(NCc1ccccc1)C1=C[C@H](c2csc3ccccc23)C[C@H](OCCCCO)O1 | 0.6 | nt | 2.6 | 4.5 | -3.4 | nt | 6
O=C(O)c1cc(-c2cccnc2)nn1-c1ccccn1 | 0.6 | 0.73 | 5.7 | -1.4 | 0.1 | -5% | -1
Cc1ccc(S(=O)(=O)n2ccc3c(OCCOCCNCc4ccc(F)cc4)cccc32)cc1 | ? | 0.6 | 4.1 | -12 | 5.0 | 0% | 29
S=C(NCc1ccc2c(c1)OCO2)NC1CCN(Cc2ccccc2)CC1 | -0.5 | 0.66 | 2.4 | 1.3 | -2.8 | -2% | -2
O=C(Nc1ccc(F)cc1F)c1ccc(COc2c(F)c(F)cc(F)c2F)o1 | -0.1 | 0.71 | 2.9 | 3.1 | 3.4 | 18% | -6
CCOC(=O)c1nnn2c1nc(N(CC)CC)c1ccccc12 | 0.2 | 0.7 | 6.2 | 2.6 | 3.9 | nt | 1

Bioassay records deposited in PubChem by several laboratories.
